Assay outcomes as filed in PubChem BioAssay.
Autofluor counter: flagged as autofluorescent in microsphere protease counterscreen; AID 624483; hit rate 3.1% among 360,000; fluorescence intensity (concentration not given with the values); compound autofluorescence counterscreen, microsphere flow cytometry; active compounds read high;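 active means at least 3 SD above the mean of all compounds, about 16000 in these data; inconclusive means too few beads counted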;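 further: 100 nL of 1 mM stock went into each well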
ugtP null kill: kills S. aureus RN4220 lacking UgtP; hit rate 0.54% among 330,000; growth inhibition, % (test concentration not listed); S. aureus RN4220 ugtP deletion, OD600 growth, 16 h; some inactives read as strong as hits;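 active means z-score under -3 and OD600 up to 0.15 on both plates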;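 further: plate controls were untreated wells for no effect and antibiotic for full effect; wells of about 80 µL received 100 nL stock; the first replicate is given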
Sa RN4220 lethal: kills Staphylococcus aureus RN4220; S. aureus RN4220 growth, OD600, 16 h; inhibition, % (no concentration beside the values); hit rate 0.33% among 330,000;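 active means z-score of -3 or lower and OD600 up to 0.18 on both plates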;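 further: plate controls were untreated cells for no effect and reference antibiotic for full effect; stock transfer was 100 nL into about 80 µL; one replicate is shown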
BJeLR lethal: BJeLR cell viability loss; BJeLR (HRASV12) viability, CellTiter-Glo ATP luminescence, 48 h; reference of the scale not given here; inhibition, % (concentration not given with the values); hit rate 0.17% among 300,000;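 active means replicate mean above 50%; inconclusive means above 50% but judged a plate artefact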;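 further: 50 nL library stock added to about 25 µL; numbers are from one replicate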
PrP 5UTR inh: suppresses PrP 5' UTR mRNA reporter expression | cell-based PrP 5' UTR mRNA reporter, plate reader | inhibition, % (no concentration beside the values) | hit rate 0.35% among 340,000;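 active means every replicate at 50% or more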;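 further: 0 = median of the neutral control wells; tested in H4 reporter cells; numbers are from one replicate; inactives centre near -14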
Mtb hypoxia inh: Mtb hypoxia fluorescent reporter inhibition | M. tuberculosis hypoxia-regulated fluorescent reporter, fluorescence | fluorescence inhibition, % (no concentration beside the values) | hit rate 0.1% among 300,000 | AID 1159583;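 active means 35 to 45% if threefold the growth effect, above 45% if 1.5-fold the growth effect; inactive means the rest, general growth blockers included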;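 further: wells of about 50 µL received 100 nL stock; 0% = vehicle wells and 100% = reference inhibitor wells; whole bacteria with a GFP reporter of the hypoxia response; strong numbers were not always called active; many hits fall short of the cut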
Mtb hypoxia inh growth: also measured in Mtb hypoxia inh; calls as there; growth inhibition, %; measured here: M. tuberculosis growth (absorbance);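 0% = vehicle and 100% = reference antibiotic; read after six days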
* marks the source's active call; other numbers are inactive results; ? = inconclusive; . = no result given. Rows are unselected. About 4% of those tested had a hit in this group.

The first 5 entries, to show the layout:
SMILES | Autofluor counter | ugtP null kill | Sa RN4220 lethal | BJeLR lethal | PrP 5UTR inh | Mtb hypoxia inh | Mtb hypoxia inh growth
O=C(O)C1CCCN(S(=O)(=O)c2ccc(F)cc2)C1 (stereo not given) | 2415 | 0 | -1.8 | -8 | -20 | 11 | 9
CCS(=O)(=O)c1ccc(S(=O)(=O)CC)s1 | 9334 | 1 | 2.5 | 14 | -32 | 5 | 3
Cn1ncc(Br)c1C(=O)N/N=C/c1cccc(OC2CSC2)c1 | 1994 | . | . | 9 | -8 | . | .
CCOC(=O)c1c(NC(=O)C(C)Sc2cccc[n+]2[O-])sc2c1CCN(Cc1ccccc1)C2 (stereo not given) | 8502 | -1 | 4.3 | . | 9 | 0 | 3
COc1ccc2c(c1OC)C(=O)N1N=C(c3ccc(F)cc3)CC21 (stereo not given) | 2428 | -1 | 5.3 | -3 | -19 | 4 | 1

The listing, repeating the preview:
SMILES | Autofluor counter | ugtP null kill | Sa RN4220 lethal | BJeLR lethal | PrP 5UTR inh | Mtb hypoxia inh | Mtb hypoxia inh growth
O=C(O)C1CCCN(S(=O)(=O)c2ccc(F)cc2)C1 (stereo not given) | 2415 | 0 | -1.8 | -8 | -20 | 11 | 9
CCS(=O)(=O)c1ccc(S(=O)(=O)CC)s1 | 9334 | 1 | 2.5 | 14 | -32 | 5 | 3
Cn1ncc(Br)c1C(=O)N/N=C/c1cccc(OC2CSC2)c1 | 1994 | . | . | 9 | -8 | . | .
CCOC(=O)c1c(NC(=O)C(C)Sc2cccc[n+]2[O-])sc2c1CCN(Cc1ccccc1)C2 (stereo not given) | 8502 | -1 | 4.3 | . | 9 | 0 | 3
COc1ccc2c(c1OC)C(=O)N1N=C(c3ccc(F)cc3)CC21 (stereo not given) | 2428 | -1 | 5.3 | -3 | -19 | 4 | 1
O=[N+]([O-])c1cc(C(F)(F)F)cc([N+](=O)[O-])c1NCCCN1CCOCC1 | 4549 | -1 | 6.6 | -4 | -28 | 5 | 7
NC(=O)c1cccc(-c2cccc(OC(=O)NC3CCCCC3)c2)c1 | 3413 | 15 | 2.4 | -11 | -22 | 19 | 15
CCOC(=O)c1oc2cc(O)ccc2c(=O)c1-c1csc(C)n1 | 2432 | 2 | -6.1 | -5 | -7 | 9 | 4
O=C(CSc1nnc(CNC(=O)c2ccccc2F)o1)Nc1ccc2c(c1)OCO2 | 2603 | 2 | 2.2 | 9 | -16 | 2 | 5
Cc1onc(-c2c(F)cccc2Cl)c1C(=O)N1CCOC12CCCCC2 | 2447 | 6 | -0.5 | 1 | -13 | 7 | -2
CCC(C)NC(=O)Cn1cc(S(=O)(=O)N2CCCC2)c(S(=O)(=O)N2CCCC2)c1 (stereo not given) | 5528 | -2 | 0.4 | -6 | -8 | 0 | 12
O=C(CSc1cn(CC(=O)N2CCCCCC2)c2ccccc12)NCC1CCCO1 (stereo not given) | 4135 | 2 | 4.5 | 10 | -19 | 2 | 13
COc1ccc(Cc2nnc(SCC(=O)c3c(N)n(C4CC4)c(=O)[nH]c3=O)o2)cc1 | 5329 | 2 | 0.4 | . | . | 3 | 0
O=C(NCC1CCCN1S(=O)(=O)c1cccs1)C(=O)Nc1ccccc1Cl (stereo not given) | 10701 | 13 | 3.5 | -2 | -17 | 7 | 14
CCOc1cc(C=NNc2cccc(C(=O)O)c2)ccc1OC(=O)c1ccccc1 | . | 6 | 2.8 | . | . | 12 | 7
O=C(Nc1cccc([N+](=O)[O-])c1)N1CCCc2ccccc21 | 6278 | -8 | -2.3 | 0 | -6 | . | .
Cc1c(C=NNC(=O)COc2ccccc2[N+](=O)[O-])c2ccccc2n1C | . | 1 | 2.6 | . | . | 9 | 1
CCC(CC)NC(=O)c1oc2ccccc2c1COc1ccccc1 | 2003 | -2 | -4.2 | 1 | 6 | 17 | 6
CCOc1cc(C(=O)Nc2ccc(S(=O)(=O)N3CCOCC3)cc2)cc(OCC)c1OCC | 2740 | -6 | -14 | -9 | -13 | 12 | 11
Cc1ccc(Cl)cc1N(C)C(=O)Cn1ncc2c([nH]c3ccccc32)c1=O | 6558 | -2 | -1.7 | -1 | 1 | -7 | -1
CCOC(=O)CNc1nc(Oc2ccc(=O)n(C)n2)nc(N(CC)CC)n1 | 2071 | 8 | 2.2 | -8 | -16 | 11 | 4
C[C@H](NC(=O)c1ccccc1)C(=O)N1CCC2(CC1)NCCc1[nH]cnc12 | 5376 | 7 | 4.2 | -4 | -13 | 1 | 12
Cc1cc(C(=O)N/N=C2\CC(=O)CC(C)(C)C2)n[nH]1 | 9662 | . | . | 0 | -18 | . | .
O=C(CCN1CCC(c2ccccc2)C1)c1cccs1 (stereo not given) | 9509 | 19 | -3.1 | -6 | -11 | 9 | 3
CCN(CC)C(c1ccc(C)cc1)c1nnnn1C1CCCCC1 (stereo not given) | 10419 | 2 | 15 | 0 | -18 | 7 | 7
Continuation:
SMILES | Autofluor counter | ugtP null kill | Sa RN4220 lethal | BJeLR lethal | PrP 5UTR inh | Mtb hypoxia inh | Mtb hypoxia inh growth
CN(C)S(=O)(=O)c1cccc(NC(=O)c2ccc(COc3ccccc3)cc2)c1 | 3831 | 9 | -3.6 | 7 | -3 | -3 | 7
Cc1sc2nc(CC(N)=O)[nH]c(=O)c2c1-c1ccccc1 | 2451 | 9 | 3.0 | 8 | -10 | 2 | -2
O=c1[nH]c(/C=C/c2ccc(Br)cc2)nc2c1cnn2-c1ccccc1 | . | 5 | -1.9 | 7 | . | 2 | -4
Cc1ccc(S(=O)(=O)N/N=C\c2cn(-c3ccccc3)nc2-c2ccccc2)cc1 | 6882 | . | . | 2 | -36 | . | .
CCOc1ccccc1CN1CCN(S(C)(=O)=O)CC1 | 12483 | 2 | 2.9 | -2 | -19 | 3 | 8
O=C(Nc1ncccn1)c1cc([N+](=O)[O-])cc([N+](=O)[O-])c1 | 2511 | 10 | -1.2 | 4 | -16 | -5 | 11
Nc1nc(OCC(F)(F)F)cc(Oc2ccccc2F)n1 | 10278 | 24 | 6.0 | -13 | -23 | 8 | 9
COc1ccc(OC)c(C2=NOC(C(=O)NCc3ccco3)C2)c1 (stereo not given) | 3727 | 13 | 6.2 | -11 | -13 | 9 | 2
C#CCOCCOCCOCCNc1nc(N2CCN(C(=O)C(CCCCN)n3cc(C(N)C(C)CC)nn3)CC2)nc(N2CCN(C(=O)C(C(C)CC)n3cc(C(N)CC(C)C)nn3)CC2)n1 (stereo not given) | . | 1 | 1.0 | . | . | 10 | 11
COc1ccc(NC(=S)NC(=O)c2csnn2)cc1 | 2451 | 3 | 3.1 | -1 | -101 | 23 | 20
COc1ccc(NC(=O)N(Cc2ccc(C)cc2)Cc2cccnc2)c(OC)c1 | 5564 | 11 | 1.2 | 1 | -36 | 7 | 6
O=C(COC(=O)c1cccc(S(=O)(=O)N2CCOCC2)c1)NCc1ccc2c(c1)OCO2 | 3779 | 3 | 1.6 | . | -17 | 5 | 1
CCCc1cc(Nc2c(C)n(C)n(-c3ccccc3)c2=O)n2c(nc3ccccc32)c1C#N | 22932* | -9 | -6.8 | 1 | 10 | -4 | 1
COc1ccc(Cl)cc1-c1nc(SCC(=O)NC(C)C(C)C)n[nH]1 (stereo not given) | 4283 | 16 | 10 | -2 | -23 | 10 | 7
O=C(CSc1nnnn1-c1cccc2ccccc12)N1CCOCC1 | 3534 | -2 | -1.0 | -8 | 3 | 4 | 5
NC(=O)CSC1=N/C(=C\c2ccco2)C(=O)N1c1ccc(OC(F)F)cc1 | 3475 | -2 | 2.8 | -7 | 44 | 10 | 6
CN(C)c1cccc(C(=O)NN=Cc2ccccc2F)c1 | . | -1 | 1.4 | . | . | -5 | 10
Cc1oc(-c2ccccc2Cl)nc1CS(=O)(=O)CC(=O)NCCc1ccccc1 | 5208 | -4 | 4.5 | -11 | -14 | -2 | -3
Cc1ccc2c(c1)cc(CN(Cc1ccco1)C(=O)N1CCOCC1)c1nnnn12 | 4265 | 17 | 7.5 | 7 | -25 | 4 | 9
CCOCCCNCC(=O)Nc1cc(S(=O)(=O)N2CCOCC2)ccc1N1CCOCC1 | 3855 | 4 | 8.1 | . | -15 | 2 | -3
Cc1oc(N=Cc2ccccc2)c(C#N)c1C | . | 12 | 3.9 | . | . | 4 | -2
CC(C)c1ccc(/C=C/C(=O)NC(=S)NN2CCOCC2)cc1 | 6713 | -4 | 2.0 | . | -8 | 2 | 10
CCC(C)n1c(O)c(C=Nc2cccc(C(F)(F)F)c2)c(=O)[nH]c1=S (stereo not given) | 2174 | 0 | 0.2 | -19 | -32 | -5 | -8
Cn1c(SCC(=O)NCC2CCCO2)nc2scc(-c3ccccc3)c2c1=O (stereo not given) | 3873 | -8 | -2.8 | . | -1 | -7 | 3
CC(=O)Nc1ccc(S(=O)(=O)NCC(=O)NNC(=O)COc2ccccc2Cl)cc1 | ? | 10 | -0.5 | -9 | -20 | 4 | -2
Next records follow:
SMILES | Autofluor counter | ugtP null kill | Sa RN4220 lethal | BJeLR lethal | PrP 5UTR inh | Mtb hypoxia inh | Mtb hypoxia inh growth
CC(C)C(NC(=O)C1(NC(=O)OCc2ccccc2)CCCC1)C(=O)O (stereo not given) | 2886 | 0 | 0.8 | . | -16 | 1 | 2
O=c1[nH]c(-c2ccc(O)cc2)nc2scc(-c3cccs3)c12 | 5273 | 2 | -20 | 5 | -35 | 8 | 2
CC(OC(=O)c1cccc([N+](=O)[O-])c1)C(=O)NCc1ccc2c(c1)OCO2 (stereo not given) | 4533 | 13 | -2.7 | -1 | -6 | 9 | -2
COCCNC(=S)NNC(=O)c1cccs1 | 3191 | 6 | -1.1 | -1 | -30 | 10 | 16
O=C(CSc1ccccn1)N1CCNC1=O | 3720 | 4 | 1.6 | . | -6 | 12 | 19
COc1cc(CC(=O)N(c2ccccc2)c2nc(C)cs2)cc(OC)c1OC | 4379 | -4 | -1.7 | 5 | 61* | -1 | -2
COc1ccc(-n2ncc3c2CC(C)(C)CC3NC(=O)C2=CC(=O)CC(C)(C)O2)cc1 (stereo not given) | 5668 | 7 | 4.2 | 15 | -8 | 6 | 3
CCC(O)C(C)(C)C (stereo not given) | 5522 | 5 | 3.7 | . | -5 | 5 | 8
COc1cccc(C(=O)Nc2ccc(S(=O)(=O)N3CCCCC3)cc2)c1OC | 5743 | -1 | -0.7 | 8 | -11 | -13 | -8
CC#CC(=O)NC1CCCN(C2Cc3ccccc3C2)C1 (stereo not given) | 4261 | 9 | 4.1 | -2 | -41 | 2 | 1
CCn1cc(C(=O)N2CCN(Cc3ccc4c(c3)OCO4)CC2)c(=O)c2ccc(C)nc21 | . | -2 | -5.1 | 7 | -20 | 5 | -4
COC(=O)C1=C(C)NC2=C(C1c1ccc(O)cc1)S(=O)(=O)c1ccccc12 (stereo not given) | 4794 | 21 | 2.5 | -7 | -24 | . | .
COC(=O)C1=C(O)/C(=C\c2ccc(OCC(=O)Nc3ccccc3OC)cc2)N=C1C | 5592 | 8 | -1.8 | -6 | -7 | -1 | 2
Cc1cc(Nc2ccc(F)cc2)n2nc(C)nc2n1 | 5821 | 5 | 4.0 | -6 | -30 | . | .
CCOC(=O)C(CC)n1cnc2c(nnn2-c2cccc(OC)c2)c1=O (stereo not given) | 3847 | -3 | -0.9 | 0 | -29 | 9 | 4
OCCC1CN(Cc2cnn(-c3ccc(F)cc3)c2)CCN1Cc1ccsc1 (stereo not given) | 2027 | 6 | 0.4 | -3 | 3 | 2 | -15
O=C(CC12CCC(CC1)C2)NCc1ccc2c(c1)OCO2 | 3379 | 11 | -0.6 | -10 | -5 | 15 | 12
CN(CC(=O)Nc1ccc(Cl)c(Cl)c1)C1CCCCC1 | 3536 | 1 | -1.2 | -7 | 3 | . | .
CC(=O)Nc1ccc(S(=O)(=O)Nc2ccc(S(=O)(=O)Nc3ncccn3)cc2)cc1 | 4837 | 0 | 3.7 | -8 | 2 | 8 | 9
COc1cccc(NC(=O)CSc2nnnn2C2CCCCC2)c1 | 5220 | 5 | -1.3 | -17 | -17 | -13 | -2
COc1ccc(-n2c(O)c(C=NCCN3CCN(C(C)=O)CC3)c(=O)[nH]c2=S)cc1 | 4513 | 4 | 1.3 | 19 | -1 | -6 | -8
CC1(c2ccccc2)NC(=O)N(Cc2ccc([N+](=O)[O-])cc2)C1=O (stereo not given) | 11335 | 0 | 3.1 | 0 | -11 | 5 | 2
COc1ccc(OC)c(NC(=O)C2CCCN2C(=O)NC2CCCCC2)c1 (stereo not given) | 3648 | 2 | 1.7 | -2 | -8 | 0 | 6
CCOC(=O)c1cnn2cc(-c3[nH]ncc3[N+](=O)[O-])cnc12 | 2134 | . | . | 11 | -38 | . | .
